# Beta cell apopt: inhibitors of cytokine-induced beta cell apoptosis, primary screen, luminescence. AID 435005, 2010. protection from apoptosis, % (concentration not given with the values). INS-1E cytokine-induced death, ATP luminescence, 48 h; percent of positive-control rescue, neutral wells zero. 300,000 tested, 0.8% active;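 active = all replicates at 75% or more, or half of them and the mean; inconclusive = half reach 75% but not the mean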;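 also: 0% = cytokine-treated negative control wells and 100% = positive control rescue; higher means more ATP so stronger rescue from cytokine killing; wells of about 40 µL received 100 nL stock; the first replicate is given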
# Ecoli rRNA inh: reduced GFP signal of wild-type E. coli, primary screen, bacterial rRNA inhibitor project, GFP/RFP fluorescence, OD600, single point. AID 720706, 2013. 350,000 tested, 1.6% active. GFP signal change (wild-type ribosome), % (concentration not given with the values). E. coli WT GFP vs humanized-ribosome RFP mutants, 24 h; active compounds read low; DMSO median 0, no signal -100;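 active = significant combined selectivity score with lowered wild-type GFP, culture density cut under 30%, mutant RFP and density less affected; inactive = any of these conditions unmet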; also: one replicate is shown; some compounds called inactive have numbers as strong as hits
# LANA-H2A inh: blockers of LANA interaction with H2A/H2B – biochemical, FP readout, HTS, primary screen; cell-free LANA-H2A/H2B peptide, fluorescence polarization; Protein LANA1 (Human herpesvirus 8 type P (isolate GK18)), Q9QR71; 320,000 tested, 0.6% active; inhibition, % (test concentration not listed); in the data active = inhibition mostly above about 10%, no sharp cut-off; inactive = mostly below about 6.7%;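 also: stock transfer was 7.5 nL into about 10 µL; 0% = median of vehicle wells and 100% = median of positive control wells; one replicate is shown; the record names a cut of 25% in any replicate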
# Target sequence (Q9QR71 whole entry, looked up): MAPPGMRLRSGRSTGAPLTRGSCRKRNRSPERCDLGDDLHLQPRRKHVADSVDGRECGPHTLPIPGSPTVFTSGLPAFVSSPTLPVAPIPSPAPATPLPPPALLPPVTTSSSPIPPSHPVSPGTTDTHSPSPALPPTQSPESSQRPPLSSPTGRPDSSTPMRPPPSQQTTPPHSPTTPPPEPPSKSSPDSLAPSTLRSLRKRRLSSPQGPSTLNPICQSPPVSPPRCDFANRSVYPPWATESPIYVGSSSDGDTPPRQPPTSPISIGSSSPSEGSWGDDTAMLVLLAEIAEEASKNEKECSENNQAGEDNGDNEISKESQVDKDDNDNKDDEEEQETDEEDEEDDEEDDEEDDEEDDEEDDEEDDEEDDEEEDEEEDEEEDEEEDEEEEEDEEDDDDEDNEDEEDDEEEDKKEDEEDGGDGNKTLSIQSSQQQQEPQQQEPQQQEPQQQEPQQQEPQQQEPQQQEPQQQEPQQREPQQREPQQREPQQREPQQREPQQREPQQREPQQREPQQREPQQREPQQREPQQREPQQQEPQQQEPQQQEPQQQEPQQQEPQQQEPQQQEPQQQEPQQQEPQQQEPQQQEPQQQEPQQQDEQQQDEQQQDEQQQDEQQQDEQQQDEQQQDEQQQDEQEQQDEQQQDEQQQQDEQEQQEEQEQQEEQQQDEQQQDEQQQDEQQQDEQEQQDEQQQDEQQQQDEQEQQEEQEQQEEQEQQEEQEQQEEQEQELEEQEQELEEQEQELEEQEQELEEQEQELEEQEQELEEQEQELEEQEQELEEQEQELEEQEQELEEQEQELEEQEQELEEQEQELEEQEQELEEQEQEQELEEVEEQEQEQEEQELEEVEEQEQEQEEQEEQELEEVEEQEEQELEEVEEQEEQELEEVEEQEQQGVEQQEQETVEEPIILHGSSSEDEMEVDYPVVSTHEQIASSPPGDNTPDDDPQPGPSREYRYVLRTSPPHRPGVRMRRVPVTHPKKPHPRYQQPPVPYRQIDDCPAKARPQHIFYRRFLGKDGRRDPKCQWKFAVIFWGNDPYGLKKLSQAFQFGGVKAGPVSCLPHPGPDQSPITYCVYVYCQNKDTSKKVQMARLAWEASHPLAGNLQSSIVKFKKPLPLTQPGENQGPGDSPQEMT
# Calb FLC: C. albicans growth inhibition with fluconazole, primary screen, CaCi-2 strain, Alamar Blue fluorescence; C. albicans CaCi-2 (fluconazole-resistant clinical isolate) + fluconazole, 48 h; growth inhibition, % (concentration not given with the values); 300,000 tested, 0.57% active;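 active = most replicates above 75%; inconclusive = exactly half above 75%; inactive = most below 75%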;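 also: all wells also contain fluconazole at 8 µg/ml as a sub-toxic cotreatment; 0% = median of DMSO wells and 100% = median of geldanamycin control wells; wells of about 8 µL received 7.5 nL stock; the first replicate is given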
# Beta2AR agonist: beta2AR agonists driving receptor internalization, primary screen, cell-based, FAP fluorogen, flow cytometry. 340,000 tested, 0.43% active. response, % (test concentration not listed). Am2.2-beta2AR cells; reference of the scale not given here. Beta-2 adrenergic receptor (Homo sapiens), P07550;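 active = response above a set limit, near 3 SD of response in nonfluorescent compounds, cut at about 42% in these data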;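 also: stock transfer was 100 nL into about 11 µL; a reference agonist was the positive control; negative values mostly stem from fluorescent compounds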
# T cruzi inh: inhibitors of intracellular T. cruzi growth, primary screen, luminescence, NIH3T3 host cells | inhibition, % (concentration not given with the values) | T. cruzi beta-gal in NIH3T3, 90 h | 300,000 tested, 1.4% active | AID 1885, 2009;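 active = mean inhibition across valid replicates above about 55%, limit read from the data; inconclusive = mean below that limit but half or more replicates reach it; inactive = mean below it, under half of replicates reach it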;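 also: signal also drops with host cell toxicity which is not excluded here; 0% = plate median of DMSO wells and 100% = zero luminescence signal; higher percent means less beta-gal luminescence so fewer parasites; stock transfer was 50 nL into about 50 µL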
# Bfl-1 A1 inh: caspase 3/7 activation in MEF A1-2A-BIM cells, primary screen, A1 inhibitor project, cell-based, luminescence, HTS; Caspase-Glo 3/7 luminescence, 3 h; percent of clofoctol response, vehicle zero; caspase activation, % (test concentration not listed); 330,000 tested, 0.066% active; AID 2462, 2010;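 active = over half of replicate activation scores above 10%, or exactly half above 10 with the replicate mean above 10; inconclusive = replicate mean below 10 yet half the replicates above 10; inactive = over half of replicates below 10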;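 also: wells of about 30 µL received 50 nL stock; many hits fall short of the cut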
# ALR H2O2 inh: inhibitors of human ALR sulfhydryl oxidase, primary screen, biochemical, H2O2 detection, HRP-luminol luminescence, single point | FAD-linked sulfhydryl oxidase ALR (Homo sapiens), P55789 | purified ALR, DTT oxidation | inhibition, % (concentration not given with the values) | 290,000 tested, 3.8% active;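 active = mean and each replicate at 75% or more; inconclusive = only one of the two met; inactive = neither met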;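 also: stock transfer was 7.5 nL into about 7.5 µL; 0% = neutral wells and 100% = wells with inactivated enzyme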
# Ecoli rRNA inh OD600: further read-out of Ecoli rRNA inh, marked with its call; OD600 change, %; measured here: OD600 growth;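 optical density of the mix in the first replicate; 0 = DMSO median and -100 = no signal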
# Ecoli rRNA inh RFP: further read-out of Ecoli rRNA inh, marked with its call; RFP signal change, %; measured here: RFP humanized mutant strains;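 first replicate; 0 = DMSO median and -100 = no signal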
# Numbers without * were called inactive; ? = inconclusive; . = no result given; + = active, no number.
# Values run as follows: Ecoli rRNA inh RFP	Calb FLC	ALR H2O2 inh	Beta2AR agonist	Bfl-1 A1 inh	Beta cell apopt	LANA-H2A inh	T cruzi inh	Ecoli rRNA inh OD600	Ecoli rRNA inh
> CCN1CCN(c2nc3sc4c(c3c(=O)n2-c2ccc(OC)cc2)CCCCC4)CC1
    .	19	-7	-33	0.1	2	1.9	38	.	.
> Cc1nnc(SCC(=O)N(C)c2ccccc2)n1-n1cccc1
    0.1	6	-22	12	1.4	.	0.9	4	1	0
> COc1cc(OC)c(N(C)S(=O)(=O)c2cccc(C(=O)NC(C)C3CC4CCC3C4)c2)cc1Cl (centres undefined)
    9.3	-4	-7	4	0.3	2	1.2	30	14	-2
> O=C(CN1C(=O)CCS(=O)(=O)c2ccccc21)Nc1ccc(F)cc1
    0.8	-24	-1	-7	1.0	3	2.7	12	14	-1
> CSc1nnc(C(C)(C)C)c(=O)n1/N=C/c1c(O)ccc2ccccc12
    -2.8	-5	-4	2	-0.6	-1	-1.9	-11	-4	4
> Cc1ccc(/C=N/NC(=O)c2nnn(-c3nonc3N)c2CSc2ccc(Cl)cc2)cc1
    -2.2	-2	-9	22	-0.5	13	1.3	6	-4	-3
> COc1cc(Cl)ccc1OCc1cc(C(=O)NCC(C)(C)N2CCOCC2)no1
    -0.9	-5	.	-2	.	.	.	2	-1	2
> COc1ccccc1OC(=O)CCc1nc2ccccc2s1
    -0.1	1	-4	-115	-0.4	3	1.6	-11	5	4
> COc1ccc(C)cc1N(C(=O)Cn1nnc(-c2ccc(C)o2)n1)C(C(=O)NC1CCCC1)c1ccncc1 (centres undefined)
    -2.0	4	.	2	1.1	-2	4.7	4	8	0
> COc1ccc(S(=O)(=O)Nc2cc(C(C)C)c(O)cc2C)cc1
    .	5	?	-2	1.4	-7	3.3	5	.	.
> COc1ccc(Cl)cc1C(=O)NNC(=O)COC(=O)CC(NC(C)=O)c1ccccc1 (centres undefined)
    1.4	0	1	-4	0.5	0	5.6	-8	-1	1
> CCCCn1c(N)c(-c2nc3ccccc3o2)c2c([N+](=O)[O-])nn(CC)c(=O)c21
    .	-9	.	3	-0.4	-3	-1.6	27	.	.
> Nc1nc(CCOc2ccc(F)cc2)cs1
    4.0	-3	.	-2	.	.	.	-8	-18	-6
> Cc1ccnc(NC(=O)CS(=O)(=O)c2ccccc2)c1
    -1.9	-4	3	-10	0.0	-7	-2.0	-6	10	4
> O=C(COC(=O)CNC(=O)C1CCCCC1)Nc1ccccc1
    2.4	.	-3	.	0.6	-2	1.2	.	-1	5
> Cn1c(=O)oc2cc(S(=O)(=O)Nc3ccc(F)cc3)ccc21
    2.3	-4	-6	-1	-0.1	-1	-2.9	7	11	9
> COc1ccc(C(CNC(=O)c2ccc(S(=O)(=O)Nc3ccccc3F)cc2)N(C)C)cc1 (centres undefined)
    -1.4	-17	-1	1	-0.2	-12	-2.3	-8	-1	9
> O=C(NC(=O)c1ccccc1)Nc1ccccc1
    -0.6	-32	-12	-5	-9.3	-2	-9.5	-9	23	16
> CCN(CC(=O)Nc1ccc(NC(C)=O)cc1)C(=O)CSCC(=O)Nc1ccc(C)cc1
    -20	.	62	1	0.7	0	-2.9	-4	-79	-59
> CC1CCC(NC(=S)NCCN(C)C)CC1 (centres undefined)
    -0.6	-15	-3	0	-0.2	0	-2.4	-4	12	13
> CCOC(=O)c1cc2c(=O)n3ccccc3nc2n(CCCOC)c1=NC(C)=O
    .	.	-4	-4	-0.3	2	2.5	.	.	.
> Cc1ccccc1SCC(=O)OCC(=O)N(C)c1c(N)n(Cc2ccccc2)c(=O)[nH]c1=O
    -0.4	-5	.	-13	-0.6	-7	.	-7	16	12
> CCOc1ccc(-c2n[nH]c(=S)n2Cc2ccccc2)cc1
    4.1	-1	.	1	0.9	1	0.7	-2	-20	-23
> CSc1ccc(CNCCCN(C)C)cc1
    -2.6	-5	-5	2	-0.2	-4	-0.1	25	-2	14
> Fc1ccc(-n2c(Cn3nnc4ccccc43)n[nH]c2=S)cc1
    -2.3	8	5	5	0.4	-2	3.3	-12	3	2
> CCc1cccc2c(C(=O)COC(=O)c3nn(C)c(=O)c4ccccc34)c[nH]c12
    .	5	0	25	-0.8	6	-5.4	-17	.	.
> Cc1ccc(CNC(=O)CS(=O)(=O)CC(=O)O)cc1
    .	-8	6	0	-0.8	-11	0.3	-2	.	.
> COc1ccc(C(=O)NC(C)c2nnc(SCC(=O)NC3CCCCC3)n2C)cc1 (centres undefined)
    -2.2	12	1	0	-0.3	-7	-0.8	1	6	1
> O=C(O)CNC(=O)c1ccc(NC(=O)/C(=C/c2cccc([N+](=O)[O-])c2)NC(=O)c2ccco2)cc1
    -2.6	.	1	-5	0.2	-6	-1.7	0	12	0
> Cc1cc(NC(=O)CCC(=O)N(Cc2ccccc2)C(C(=O)NC2CCCC2)c2ccco2)no1 (centres undefined)
    -3.5	0	.	-2	0.2	-1	3.2	19	1	1

# The list goes on; the last 2 above are carried over.
# Values run as follows: Ecoli rRNA inh RFP	Calb FLC	ALR H2O2 inh	Beta2AR agonist	Bfl-1 A1 inh	Beta cell apopt	LANA-H2A inh	T cruzi inh	Ecoli rRNA inh OD600	Ecoli rRNA inh
> O=C(O)CNC(=O)c1ccc(NC(=O)/C(=C/c2cccc([N+](=O)[O-])c2)NC(=O)c2ccco2)cc1
    -2.6	.	1	-5	0.2	-6	-1.7	0	12	0
> Cc1cc(NC(=O)CCC(=O)N(Cc2ccccc2)C(C(=O)NC2CCCC2)c2ccco2)no1 (centres undefined)
    -3.5	0	.	-2	0.2	-1	3.2	19	1	1
> COc1ccc(/C=C/C(=O)OCC(=O)NC2CCCC(C)C2C)c(OC)c1 (centres undefined)
    1.5	.	.	0	-0.4	4	5.6	.	7	6
> CCOc1ccc(NC(=O)CN(C)C(=O)c2ccc(COc3ccccc3)o2)cc1OCC
    0.3	-3	-15	-16	0.9	3	2.5	1	-11	-14
> CCOc1ccccc1NS(=O)(=O)c1ccc2c(c1)N(C)CCO2
    3.1	4	0	7	-2.1	1	-2.6	3	-11	-12
> Cc1ccc(/C=C2/Sc3ccc(C(=O)NCCN4CCOCC4)cc3NC2=O)cc1
    6.8	-7	-4	11	0.6	-6	3.5	6	1	3
> Cc1cc(C(=O)NC2CCCN(Cc3ccc(Cl)cc3)C2)no1 (centres undefined)
    1.3	9	-2	0	-1.2	2	-3.0	47	11	5
> O=C1CC(c2ccc3c(c2)OCO3)c2cc3c(cc2N1)OCCO3 (centres undefined)
    .	-3	-13	-1	0.5	-4	0.4	-2	.	.
> O=[N+]([O-])c1ccc(Cl)cc1Sc1ccccn1
    .	3	3	1	0.4	-5	8.1	-7	.	.
> O=C(Nc1cccc(S(=O)(=O)N2CCCCC2)c1)c1ccco1
    1.8	.	4	2	-0.6	1	3.6	.	8	0
> Cc1nn(CC(=O)N2CCOCC2)c(=O)c2ccccc12
    .	-3	-4	-1	0.6	-2	6.1	1	.	.
> O=C(c1ccc(-n2cccn2)cc1)N1CCc2c([nH]c3ccccc23)C1c1ccccn1 (centres undefined)
    14	-2	-20	-3	0.3	9	-3.5	-7	-11	-7
> CC1CN(S(=O)(=O)c2cccc(C(=O)Nc3ccc(S(=O)(=O)NC4=NCCCCC4)cc3)c2)CC(C)O1 (centres undefined)
    1.0	-1	-3	0	0.4	.	-5.9	-1	-5	-4
> c1ccc(COc2cccc(CNCc3cccs3)c2)cc1
    8.4	-62	-16	9	0.3	2	0.5	3	-61	-42
> CC(=O)C[C@H](O)CC(=O)[C@@H]1OC(=O)[C@H](C)C/C=C\Cc2ccccc21
    -1.9	.	-1	0	0.0	-10	+	.	5	16
> CCN(CC)c1nc(=S)nc(NC(C)(C)C)[nH]1
    2.3	13	4	-3	1.3	0	-1.1	27	-14	-7
> Cn1c(=O)c(C(=O)COC(=O)c2cc(-c3ccccc3)nc3ccccc23)c(N)n(Cc2ccccc2)c1=O
    .	2	.	.	0.8	13	-0.1	?	.	.

# Fetched one by one from the list above (2):
# Values run as follows: Ecoli rRNA inh RFP	Calb FLC	ALR H2O2 inh	Beta2AR agonist	Bfl-1 A1 inh	Beta cell apopt	LANA-H2A inh	T cruzi inh	Ecoli rRNA inh OD600	Ecoli rRNA inh
> c1ccc(COc2cccc(CNCc3cccs3)c2)cc1
    8.4	-62	-16	9	0.3	2	0.5	3	-61	-42
> Cn1c(=O)c(C(=O)COC(=O)c2cc(-c3ccccc3)nc3ccccc23)c(N)n(Cc2ccccc2)c1=O
    .	2	.	.	0.8	13	-0.1	?	.	.

# (list continues)
# Values run as follows: Ecoli rRNA inh RFP	Calb FLC	ALR H2O2 inh	Beta2AR agonist	Bfl-1 A1 inh	Beta cell apopt	LANA-H2A inh	T cruzi inh	Ecoli rRNA inh OD600	Ecoli rRNA inh
> CCN(CCn1cccn1)Cc1nc(-c2ccccc2)no1
    -5.0	-3	-7	-4	-1.0	-1	-4.6	3	6	1
> Cc1ccc(C)c(N2CCN(c3ccncc3N)CC2)c1
    5.2	.	?	4	-0.3	0	-3.8	?	-6	-5
> CC1=C(C(=O)OC2CCCCC2)C(c2cccs2)n2c(nc3ccccc32)N1 (centres undefined)
    .	-11	-2	-3	0.3	-2	9.0	31	.	.
> COc1ccc(Cc2nnc(SCC(=O)NCCc3ccccc3)o2)cc1
    .	?	-18	-6	0.5	-2	1.5	-9	.	.
> CCOc1ccc(C(=O)N(C)C2CCS(=O)(=O)C2)cc1 (centres undefined)
    .	1	0	6	0.8	-6	4.6	10	.	.
> O=C1c2ccccc2C(=O)C1C1=Nc2ccccc2NC(c2ccccc2)C1 (centres undefined)
    1.7	-7	3	.	1.7	1	1.6	26	10	-3
> O=C(CC1SCCNC1=O)Nc1ccc(Cl)cc1 (centres undefined)
    6.8	1	.	-2	-0.1	-4	4.8	-6	-2	16
> CCOC(=O)CSc1nc2ccccc2n2c(C)nnc12
    2.5	-1	-10	-1	0.0	-7	-2.3	2	4	13
> CCc1cccc2c(C(=O)COC(=O)c3c(C)noc3C)c[nH]c12
    12	0	17	14	1.1	-3	3.6	16	-23	-20
> CC1CCN(C(=O)COC(=O)c2ccccc2C(=O)c2ccccc2)CC1
    -2.5	.	.	-2	0.7	-7	0.6	.	-23	-7
> COC(=O)c1c(C(=O)OC)c(C)n(Cc2ccco2)c1C
    .	3	2	6	0.9	-8	1.6	2	.	.
> Cc1nn(C)c(C)c1S(=O)(=O)N(CC(=O)NCc1cccs1)c1ccc(C(C)C)cc1
    1.8	.	3	-8	0.2	-1	0.8	.	-3	1

# Screening data (PubChem)

# These rows are one share of the data, so the mix of outcomes need not match the whole.
